Compound activity: PubChem, Johns Hopkins Ion Channel Center
KCNQ2 inh: KCNQ2 potassium channel inhibitors, primary screen, cell-based, CHO-K1, FluxOR thallium flux, B-score (AID 2156); 20 min; hits give low values; only compounds with negative scores are shown here; some inactives read as strong as hits; B-score at 10 µM; 310,000 compounds, 1.1% hits;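 active = fluorescence ratio B-score at most minus 3 library SDs, with starting brightness B-score within 2 library SDs, cut at about -5.5 in these data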
Target sequence (O88943 whole entry, looked up): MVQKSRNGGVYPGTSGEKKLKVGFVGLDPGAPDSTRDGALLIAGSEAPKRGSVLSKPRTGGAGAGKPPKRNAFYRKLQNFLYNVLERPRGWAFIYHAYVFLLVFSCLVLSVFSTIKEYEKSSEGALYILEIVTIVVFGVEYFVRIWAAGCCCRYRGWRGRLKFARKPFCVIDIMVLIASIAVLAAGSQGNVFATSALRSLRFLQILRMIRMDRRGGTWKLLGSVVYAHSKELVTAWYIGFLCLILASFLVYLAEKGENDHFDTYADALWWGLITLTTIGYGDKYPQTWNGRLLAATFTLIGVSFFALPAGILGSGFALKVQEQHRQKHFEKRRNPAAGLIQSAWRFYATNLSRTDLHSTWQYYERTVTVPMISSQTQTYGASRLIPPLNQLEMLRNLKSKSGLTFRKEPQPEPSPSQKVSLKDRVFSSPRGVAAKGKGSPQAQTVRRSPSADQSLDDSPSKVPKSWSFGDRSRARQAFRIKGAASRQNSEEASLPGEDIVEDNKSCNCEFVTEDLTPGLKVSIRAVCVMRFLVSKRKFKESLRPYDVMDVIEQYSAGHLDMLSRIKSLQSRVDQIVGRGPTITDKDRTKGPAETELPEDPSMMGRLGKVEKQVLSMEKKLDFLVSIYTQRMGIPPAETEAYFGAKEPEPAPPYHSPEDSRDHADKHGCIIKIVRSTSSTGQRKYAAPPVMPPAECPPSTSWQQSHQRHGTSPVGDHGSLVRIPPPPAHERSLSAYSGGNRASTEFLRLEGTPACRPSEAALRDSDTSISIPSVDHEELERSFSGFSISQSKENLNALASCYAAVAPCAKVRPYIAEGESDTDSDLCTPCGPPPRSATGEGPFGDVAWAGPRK
KCNQ2 inh baseline: further read-out of KCNQ2 inh, marked with its call; B-score; measured here: initial fluorescence intensity artifact check;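 brightness before thallium and not channel activity; 0 = typical well and far values either way flag optical interference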
Starred values were filed as active, the others as inactive; i = inactive. This is a subset; the hit share may differ from the screen's.

SMILES	KCNQ2 inh	KCNQ2 inh baseline
CCOc1ccc(-c2nnn(CC(=O)NCc3cccs3)n2)cc1	i	0.6
COc1ccc(N/N=C(/N=Nc2nc(C)cc(=O)[nH]2)c2ccccc2)cc1	i	0.23
CCn1c(-c2ccccc2)c(C(=O)CCl)c2ccccc21	i	-0.27
COc1cccc(-n2c(CN3CCN(c4cccc(C)c4)C(C)C3)nc3ccc([N+](=O)[O-])cc3c2=O)c1 (configuration not stated)	-5.8*	-0.76*
COc1ccc(N2C(=O)N(Cc3ccc(C)cc3)c3ccccc3S2(=O)=O)cc1	i	0.17
Cc1ccc(N2C(=O)C3C(C2=O)N2CCCN2C3c2ccccc2)cc1C (configuration not stated)	i	0.43
CCCCC(NS(=O)(=O)c1ccc(OC)cc1)C(=O)O (configuration not stated)	i	0.98
COc1ccc(S(=O)(=O)Nc2ccccc2N2CCOCC2)cc1[N+](=O)[O-]	i	0.14
CC(=O)Nc1nonc1-c1ccccc1	i	-0.2
COc1cc(/C=C/C(=O)c2ccc(NS(=O)(=O)c3ccc(C)cc3)cc2)ccc1OC(F)F	i	2.5
O=C(O)C1(c2ccccc2)CCN(S(=O)(=O)c2cccc(Cl)c2)CC1	i	-0.01
O=C1CCCC2=C1C(c1ccccn1)Nc1ccc(C(=O)c3ccccc3)cc1N2 (configuration not stated)	i	1.3
Cc1ccnc(NS(=O)(=O)c2cc([N+](=O)[O-])ccc2C)c1	i	-1.7
O=c1c2ccccc2nc(SCc2cc(F)ccc2F)n1C1CCCC1	i	-1.4
COc1ccc(C(C#N)=C2C=CC(=NO)C=C2)cc1	-5.7*	1*
Cn1c(=O)c2c(nc(N3CCCC3)n2C)n(C)c1=O	i	0.94
Brc1ccc(/C=N/n2cnnc2)s1	i	0.91
CCCCN(CCCC)CC1OCc2ccccc2CO1	i	0.08
COC(=O)c1ccc2c(=O)[nH]c(COC(=O)CCC(=O)c3ccc(Cl)cc3)nc2c1	i	1.2
CCN(CC(=O)Nc1cc(Cl)ccc1C)C(=O)CCS(=O)(=O)c1ccc(Cl)cc1	i	1.3
Cc1ccc(/C=N/Nc2ccnc3cc(Cl)ccc23)c(C)c1	i	1.6
O=C(Nc1nc(-c2ccccc2)c(C(=O)c2ccccc2)s1)c1ccc(S(=O)(=O)N2CCCCC2)cc1	i	1.2
CCN(CC(=O)Nc1cccc(S(=O)(=O)N2CCCC2)c1)CC(=O)Nc1ccccc1OC	i	1.1
CC(C)C(=O)Nc1nc(-c2ccc3c(c2)CCN3C(=O)C2CC2)cs1	i	-1.9
CN(C(=O)COC(=O)c1ccc([N+](=O)[O-])cc1)c1ccccc1	i	0.07

Reformatted: 4 of the compounds above
CCCCC(NS(=O)(=O)c1ccc(OC)cc1)C(=O)O (configuration not stated)
  KCNQ2 inh = i | KCNQ2 inh baseline = 0.98

COc1cc(/C=C/C(=O)c2ccc(NS(=O)(=O)c3ccc(C)cc3)cc2)ccc1OC(F)F
  KCNQ2 inh = i | KCNQ2 inh baseline = 2.5

CCN(CC(=O)Nc1cccc(S(=O)(=O)N2CCCC2)c1)CC(=O)Nc1ccccc1OC
  KCNQ2 inh = i | KCNQ2 inh baseline = 1.1

CC(C)C(=O)Nc1nc(-c2ccc3c(c2)CCN3C(=O)C2CC2)cs1
  KCNQ2 inh = i | KCNQ2 inh baseline = -1.9

The list goes on.
SMILES	KCNQ2 inh	KCNQ2 inh baseline
CC(C)C(NC(=O)/C=C/c1cccc([N+](=O)[O-])c1)C(C)C	i	0.26
CCCCNC(=O)C1CCC(CNS(=O)(=O)c2ccc(C)cc2)CC1 (configuration not stated)	i	1.1
CCCc1cc(-c2ccc3c(c2)COc2c4ccccc4nn2-3)on1	i	1.4
O=C(OCC(=O)N1CCCC1=O)c1ncc(Cl)c(Cl)c1Cl	i	-0.55
Cc1ccc(OCC(=O)Nc2ccc(N3CCN(S(C)(=O)=O)CC3)cc2)cc1C	i	-1.4
NC(=O)C1CCN(C(=O)COc2cccc3cccnc23)CC1	i	-0.33
O=C(/C=C/c1ccccc1)NNC(=O)c1cccnc1	i	0.46
O=C(Cc1ccccc1)NNC(=S)NC(=O)c1cccs1	i	-0.92
CCOC(=O)C[C@H]1c2ccccc2S(=O)(=O)N1Cc1ccc(Cl)cc1	i	-1.1
COc1ncnc2c1N=C1CC(C)(C)CC(N)=C1S2	i	8.2
Cc1ccc(C2=NS(=O)(=O)N(C)C(C(=O)N(C)C3CCCCC3)=C2)cc1	i	-2.7
CC(C)OC(=O)CSc1nc2c(c(C3CC=CCC3)c1C#N)CCC2 (configuration not stated)	-6*	0.18*
CC1(C(=O)N2CCOCC2)CCCCC1	i	0.48
COc1cccc(/C=N/NC(=O)C(=O)N2CCCC2)c1	i	-0.57
Cc1cccc(OCc2nnc(SCC(=O)Nc3nccs3)o2)c1	i	2.3
CC(C)CN(c1ccccc1)S(=O)(=O)c1nnc(NC(=O)C(C)C)s1	i	-0.09
COc1ccc(-c2cc(C(=O)NCCN3CCOCC3)c3cc(C(C)C)ccc3n2)cc1	i	-0.45
CCOC(=O)Cn1c(C)[n+](CC(=O)c2ccccc2)c2ccccc21	i	-0.61
CCc1ccc(S(=O)(=O)N2CCN(c3ncccn3)CC2)cc1	i	0.94
Cc1cc(C(=O)NCC(=O)OCC(=O)N(C)C2CCCCC2)ccc1[N+](=O)[O-]	i	0.1
COc1nccnc1NS(=O)(=O)c1ccc(NC(=S)NC(=O)c2ccccc2)cc1	i	-1.9
COc1ccc(-c2c(C)nc(N)nc2-c2ccc(OCc3ccc(C)cc3)cc2O)cc1OC	i	-0.41
COc1ccc(/C=C/C(=O)c2ccc3c4c(cccc24)CC3)cc1OC	i	-0.63
CC(C)Oc1ccc(CCc2nnc(SC(C)C(=O)O)n2-c2ccccc2)cc1 (configuration not stated)	i	0.08
Cc1ccc(S(=O)(=O)/N=C(\c2ccccc2)N(C)S(=O)(=O)c2ccccc2)cc1	i	-1.6
COc1ccc(CN2CCN(C(=O)c3ccccc3F)CC2)c(OC)c1OC	i	2
O=C(O)c1ccc(CS(=O)c2cccc(C(F)(F)F)c2)o1 (configuration not stated)	i	-0.06
COc1ccccc1/C=C1\NC(=S)N(CC2CCCO2)C1=O (configuration not stated)	i	-0.46
O=c1c2cc(-c3ccccc3)sc2nc2n1N=C(c1cccs1)CS2	i	0.26
N#Cc1ccccc1CSc1nc2ccsc2c(=O)n1Cc1ccccn1	i	1.8
O=c1cc(COc2ccc(Cl)c(Cl)c2)nc2sccn12	i	0.71
CC1CCN(S(=O)(=O)c2ccc(C(=O)N3CCN(c4ccccc4F)CC3)cc2)CC1	i	1.9
O=C(c1ccccc1F)N1CCN(Cc2nc3sc4c(c3c(=O)[nH]2)CCCC4)CC1	i	0.02
CCN(CC)S(=O)(=O)c1ccc(C)c(NC(=O)c2cc(C)oc2C)c1	i	0.88
Cc1cc(Cl)ccc1OCCCC(=O)NCCCn1ccnc1	i	1.5
Cc1ccc(CN(Cc2ccccn2)C(=O)Nc2c(F)cccc2F)cc1	i	0.01
Cc1c(NC(=O)c2cc(CC(C)C)on2)c(=O)n(-c2ccccc2)n1C	i	1.1
CC(C)(C)NC(=O)COC(=O)CNC(=O)c1cc(Cl)cc([N+](=O)[O-])c1	i	0.67
O=C(NC(=S)N1CCN(c2ccc([N+](=O)[O-])cc2)CC1)c1ccccc1	i	0.51
Cc1nn(CC(=O)NCc2cccc3ccccc23)c(=O)c2ccccc12	i	-0.15
COc1cccc(N2CCN(c3nc(C)cc(C)c3C#N)CC2)c1	i	-0.3
O=C(NCCCn1ccnc1)c1ccccc1Br	i	1.2
COc1ccc(-c2cc3ccc(OC(C)C(=O)O)cc3oc2=O)cc1 (configuration not stated)	i	-0.81
Cc1cc(C(=O)N/N=C/C=C/c2ccccc2)c(C)o1	i	-0.04
Cc1cc(N2CCN(C)CC2)nc2ccc(NC(=S)N3CCCCC3)cc12	i	-1.2
COc1ccc(C(=O)CC(Nc2ccc([N+](=O)[O-])cc2)c2ccc(Cl)cc2)cc1 (configuration not stated)	-8.1*	1*
CCN(c1ccccc1)S(=O)(=O)c1cc(C(=O)Nc2ccccc2Cl)ccc1F	-6*	-0.32*
Cc1cccc2cc3c(NC(=O)C(C)(C)C)nn(CC(C)C)c3nc12	i	3.6
O=C1NCCCC1C(=O)NCCNC(=O)C(F)(F)F (configuration not stated)	i	-0.89
O=C(c1cccs1)n1nc(-c2ccc(Cl)cc2)nc1NCc1ccco1	i	-0.91

Remaining list, next part
SMILES	KCNQ2 inh	KCNQ2 inh baseline
O=C1CN(S(=O)(=O)c2cc(C(=O)O)ccc2Cl)c2ccccc2N1	i	-0.94
NNC1=N[C@H]2CS(=O)(=O)C[C@H]2S1	i	0.56
COc1ccc(N2C(=O)c3cccc4c(N(C)CCO)ccc(c34)C2=O)cc1	i	2.2
CCCCc1cc(=O)oc2cc(OCc3nn[nH]n3)ccc12	i	-0.29
O=C(CSc1ccc(-c2ccc3c(c2)OCO3)nn1)Nc1nccs1	i	-0.47
CCN(CC)C(=O)COc1ccc(N(C)S(=O)(=O)c2ccc(NC(C)=O)cc2)cc1	i	-0.42
COc1ccccc1OCC(=O)N/N=C1/C=C(C)CC1	i	-0.14
Cc1ccc[n+](-c2[nH]c(=O)sc2/C=N/N=C(\[O-])CCn2c3ccccc3c3ccccc32)c1	i	0.1
COC(=O)C1CCN(C(=O)COC(=O)Cc2c[nH]c3ccccc23)CC1	i	1.1
O=c1sc(Nc2ccccc2)nc2ccsc12	i	0.62
Cc1oc(-c2cc(F)ccc2F)nc1CN1CCN(c2ncnc3ccccc23)CC1	i	-1.6
CCCCCCCCS(=O)C1CCS(=O)(=O)C1 (configuration not stated)	i	-1.4
Cc1cc(=O)oc2c3c(ccc12)OC/C3=N/N	i	1.9
O=C(Nc1ccccc1)N(Cc1cccs1)C1CCCC1	i	1.1
CCn1c(SCC(=O)Nc2ccc(C)cc2)nnc1-c1ccccn1	i	-0.22
CCN(Cc1ccccc1)C(=O)c1cc(S(=O)(=O)N2CCOCC2)cn1C	i	2.2
O=C(N/N=C/c1ccc(O)cc1)c1cccc(N/N=C/c2ccc(O)cc2)c1	i	-1.1
COc1cccc(OCCNc2cc(Cl)ccc2[N+](=O)[O-])c1	i	1.6
O=C(Cn1cncn1)NCc1cccc2ccccc12	i	-2.4
C=CCn1c(SCc2csc(C)n2)nc2sc3c(c2c1=O)CCC(C)C3 (configuration not stated)	i	0.87
N#Cc1cc2[nH]c3ccccc3c2[n+](-c2ccc([N+](=O)[O-])cc2)c1N	i	0.75
CCOc1cc(S(=O)(=O)N2CC=C(c3ccc(F)cc3)CC2)c(OCC)cc1-n1cnnn1	i	-2.4
CC(C)OC(=O)CN1C(=O)C(=O)c2ccccc21	i	-2.6
Cc1cccc(C(C(N)=O)c2ncc(C(F)(F)F)cc2Cl)c1 (configuration not stated)	i	0.08
COc1ccccc1-c1c(C(F)(F)F)oc2cc(OS(C)(=O)=O)ccc2c1=O	i	1.1
C=CCn1c(COc2ccc3c(c2)CCCC3)nnc1SCC(=O)Nc1cccc(SC)c1	i	-1.8
CCOC(=O)N1CCC(NC(=O)CCc2c(C)nc3c(c(C)nn3C(C)(C)C)c2C)CC1	i	0.36
CCCn1cc(S(=O)(=O)c2ccc(C)cc2)c(=O)c2cc(OC)c(OC)cc21	i	-1.3
COc1ccc(C)cc1NC(=O)CCNS(=O)(=O)c1ccc2c(c1)CC(C)N2C(C)=O (configuration not stated)	i	1.8
CN(C)C(CNC(=O)C1CCN(S(=O)(=O)c2ccccc2)CC1)c1ccccc1 (configuration not stated)	i	0.76
CC1CCCCN1C(=O)Cc1ccc(Cl)cc1 (configuration not stated)	i	1.2
COc1ccc(CCNC(=O)CCc2nc3ccccc3[nH]2)cc1OC	i	0.43
CCCCN(CC)CCCNC(=O)c1cc2c(=O)n(CC)c3ccccc3c2s1	i	-0.04
N#C/C(=C\c1c(N2CCN(c3ccccc3)CC2)nc2ccccn2c1=O)S(=O)(=O)c1ccccc1	i	0.04
CCOC(=O)c1c(C)[nH]c(C(=O)CSc2nnc(-c3cccs3)n2Cc2ccccc2)c1C	i	-0.5
CN1C(C(=O)Nc2cccc(O)c2)=CC(c2ccco2)=NS1(=O)=O	i	-0.13
COc1ccc2[nH]c(=O)c(CN(C(=O)c3cccnc3)c3ccc(C)cc3)cc2c1	i	-1.3
CC(C)C(=O)NC(=S)Nc1ccccc1F	i	-1.1
O=C(Cn1c(=O)c2c(ncn2C2CCCC2)n(Cc2ccccc2)c1=O)N1CCc2ccccc21	i	2.1
Cc1cccc(NC(=O)CCN2C(=O)c3ccccc3S2(=O)=O)c1C	i	-0.05
C/C(CCc1ccc2c(c1)OCO2)=N\NC(=O)c1ccc(C)cc1C	i	2.1
COc1ccc(CNC(=S)Nc2ccccc2-c2ccccc2)cc1	-7.6*	-0.03*
Cc1cc(S(=O)(=O)NC2CCCC2)ccc1F	i	-0.57
Cc1cc(S(=O)(=O)N(Cc2ccccn2)Cc2ccco2)ccc1-n1cnnn1	i	-0.29
CCCn1c(SCC(=O)Nc2ccccc2OC)nnc1-c1ccco1	i	0.1
C/C(N)=C(/C#N)C(=O)CSc1nnnn1-c1ccc(C)cc1	i	0.05
CC(C)(CNS(=O)(=O)c1ccc2c(c1)OCCO2)N1CCOCC1	i	-0.24
O=C(c1cccc(S(=O)(=O)N2CCCC2)c1)N1CCN(c2ccccc2F)CC1	i	-1.1
CC1=C(C)CC(C(=O)Nc2ccc3c(c2)OCO3)C(C(=O)O)C1 (configuration not stated)	i	2.4
